StopGo reporter = FMDV 2A StopGo reporter, luciferase signal; human cells with a luciferase reporter of 2A StopGo recoding; control for the full effect not named in the record; Potency, µM (series often up to 57.9 µM), without a hit: at the top dose signal change, negative = less light; hit rate 1.2% among 410,000; AID 1159524; active = well fitted falling curve with a large enough effect; inconclusive = small, poorly fitted or top-dose-only effect; inactive = no such curve, though single readings can be large or run the other way; tested in HEK293T cells; further: on the % scale 0 is the no-effect control and ±100 the full control effect; nearly all actives have a fitted effect of over 45% in size; luciferase light after 4 h
Marburg entry inh = Marburg virus entry inhibition; Marburg virus pseudotyped entry inhibition, cell reporter; control for the full effect not named in the record; about a third of the inactives were read at about 46 µM; Potency, µM (titrated, usually from 37.8 µM), without a hit: at the top dose activity change, negative = inhibition, actives largely listed as inhibitors; hit rate 1.8% among 300,000; AID 540276; active = well fitted inhibition curve with a large enough effect; inconclusive = small, poorly fitted or top-dose-only effect, or effect the other way; inactive = flat fitted curve, though single readings scatter; tested in HEK293 cells; about a fifth of its hits are not listed in these tables; further: on the % scale 0 is the no-effect control and ±100 the full control effect; luciferase read-out
NS1 inh = inhibitors of influenza NS1 protein function; S. cerevisiae slowed by influenza A NS1, growth recovery by OD600; Potency, µM (highest dose often 46.1 µM), for the others: at the top dose activity, positive = more growth; hit rate 0.4% among 270,000; AID 2326; further: actives are rising curves; nearly all actives have a fitted effect of over 50% in size
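S. cerevisiae expressing influenza A NS1, grown in glucose, washed, then diluted 1:100 into pH 6.0 -URA galactose medium with 23 nl compound. Growth recovery read as OD600; NS1-free strain serves as control.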
RE007 growth inh = less growth of the S. pombe RE007 Vpr strain; S. pombe RE007 Vpr strain, BacTiter-Glo ATP luminescence, 24 h; control for the full effect not named in the record; Potency, µM (doses to about 92.2 µM), inactives show at the highest dose activity change, negative = less growth; AID 651644; hit rate 0.21% among 360,000; active = well fitted falling curve with a large enough effect; inconclusive = small, poorly fitted or top-dose-only effect; inactive = no such curve, though single readings can be large or run the other way;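 further: on the % scale 0 is the no-effect control and ±100 the full control effect; nearly all actives have a fitted effect of over 50% in size; the assay follows cell death caused by Vpr and the record does not say whether a fall means rescue or toxicity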
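Fission yeast strain RE007, carrying one chromosomally integrated HIV-1 vpr copy, was seeded at OD 0.01 in PMG+AL medium with 23 nL pinned compound. After 24 h at 30 °C and 99% humidity, viability was read by BacTiter-Glo luminescence.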
SARS PLP yeast = inhibitors of SARS-CoV papain-like protease in yeast; Potency, µM (doses to about 32.9 µM), for inactives: top-dose activity, positive = growth rescue; S. cerevisiae expressing SARS-CoV PLpro, growth rescue; control for the full effect not named in the record; hit rate 0.19% among 330,000; further: 0% is about no effect; nearly all actives have a fitted effect of over 55% in size; growth read by luminescence after 48 h
Cruzain noTriton = inhibitors of Trypanosoma cruzi cruzain without detergent | hit rate 2.3% among 200,000 | AID 1476 | purified cruzain, Z-FR-AMC fluorescence, no detergent | P25779 | Potency, µM, without a hit: max response, negative = inhibition, actives largely listed as inhibitors; active means well fitted curve in the direction sought with a large enough effect; inconclusive means small, poorly fitted or top-dose-only effect, or another doubt; inactive means no such curve, though single readings can be large; an effect the other way counts as inactive or inconclusive;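 further: plate controls were enzyme without inhibitor for no effect and buffer without enzyme for full effect; nearly all actives have a fitted effect of over 40% in size; top concentration of the series not given in the record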
Target sequence (P25779 123-467 limits assumed): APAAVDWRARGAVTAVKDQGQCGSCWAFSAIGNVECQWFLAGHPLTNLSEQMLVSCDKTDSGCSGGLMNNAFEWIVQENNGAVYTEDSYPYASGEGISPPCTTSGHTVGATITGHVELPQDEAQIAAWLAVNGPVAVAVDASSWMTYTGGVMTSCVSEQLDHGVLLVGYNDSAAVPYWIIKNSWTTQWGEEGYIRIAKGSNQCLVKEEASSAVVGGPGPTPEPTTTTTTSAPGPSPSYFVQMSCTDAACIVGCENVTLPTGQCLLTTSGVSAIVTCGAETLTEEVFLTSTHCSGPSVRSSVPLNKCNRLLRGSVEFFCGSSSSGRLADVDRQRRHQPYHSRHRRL
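Detergent-free condition (0.00005% Triton X-100) in acetate buffer pH 5.5 with DTT. 1.5 nM enzyme and compound were pre-mixed 15 min, then 2 uM Z-FR-AMC substrate added; reaction progress from fluorescence change between first and third reads (60 s).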
Cruzain inh Det = inhibitors of Trypanosoma cruzi cruzain with detergent. P25779. purified cruzain, Z-FR-AMC fluorescence, 0.01% Triton. Potency, µM, without a hit: max response, negative = inhibition, hits mostly inhibitors. hit rate 0.43% among 200,000. AID 1478; active means well fitted curve in the direction sought with a large enough effect; inconclusive means small, poorly fitted or top-dose-only effect, or another doubt; inactive means no such curve, though single readings can be large; an effect the other way counts as inactive or inconclusive;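 further: plate controls were neutral wells for no effect and buffer without enzyme for full effect; nearly all actives have a fitted effect of over 40% in size; top concentration of the series not given in the record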
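In this qHTS format, compounds are incubated with 1.5 nM cruzain for 15 min at room temperature before 2 uM Z-FR-AMC is added. Release of AMC is followed at 360/450 nm, and progress is taken as the 60 s fluorescence difference.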
Lassa entry inh = inhibitors of Lassa virus binding or cell entry; hit rate 1.2% among 300,000; Potency, µM (highest dose often 37.9 µM), without a hit: at the highest dose activity change, negative = inhibition, most hits filed as inhibitors; Lassa virus pseudotype entry inhibition, cell reporter; control for the full effect not named in the record; AID 540256; active means well fitted inhibition curve with a large enough effect; inconclusive means small, poorly fitted or top-dose-only effect, or effect the other way; inactive means flat fitted curve, though single readings scatter; tested in HEK293 cells; further: on the % scale 0 is the no-effect control and ±100 the full control effect; nearly all actives have a fitted effect of over 50% in size; luciferase read-out
* = called active by the depositor; [ ] = dose if it differs, or a comment. Unless noted, the call rests on the fitted dose curve; in most records, active means well fitted rising curve with a large enough effect; inconclusive means small, poorly fitted or top-dose-only effect; inactive means no such curve, though single readings can be large or run the other way. Potency means the concentration at half of the fitted maximal effect.

Results for O=C(COc1ccccc1)Nc1ccc(S(=O)(=O)Nc2ncccn2)cc1 ?
StopGo reporter: -5%; Marburg entry inh: 6%[46.1 µM]; NS1 inh: -3%; RE007 growth inh: -21%; SARS PLP yeast: -1%; Lassa entry inh: -22%[46.1 µM]

What do the screens show for `CCOc1ccccc1NC(=O)CCS(=O)(=O)c1ccc2c(c1)oc(=O)n2C`?
StopGo reporter: -20%; Cruzain noTriton: 5%; Cruzain inh Det: 0.1%; Lassa entry inh: 11%[46.1 µM]

What do the screens show for `COc1ccc(N(C(=O)C(C)C)S(=O)(=O)c2cccc([N+](=O)[O-])c2)cc1`?
StopGo reporter: 6%; Marburg entry inh: 3%[46.1 µM]; NS1 inh: -2%; RE007 growth inh: -23%; SARS PLP yeast: -1%; Lassa entry inh: -2%

Results for Cc1ccc(CSCCNS(=O)(=O)c2ccc(C)cc2)cc1 ?
StopGo reporter: 32%[activator]; Marburg entry inh: -16%; NS1 inh: -32%; RE007 growth inh: -19%; SARS PLP yeast: -39%; Cruzain noTriton: 3%; Cruzain inh Det: -4.8%; Lassa entry inh: -8%

What do the screens show for `CCOC(=O)N1CCC(NC(=O)CN2C(=O)COc3ccc(C(C)(C)C)cc32)CC1`?
StopGo reporter: -14%; Marburg entry inh: -24%; NS1 inh: -55%; RE007 growth inh: 18%; SARS PLP yeast: -6%; Cruzain noTriton: inconclusive; Cruzain inh Det: 2.8%; Lassa entry inh: -1%

How did CCOc1ccc(-c2cn(-c3cccc(SC)c3)c(=O)[nH]2)cc1 do in these assays?
StopGo reporter: -11%; Marburg entry inh: inconclusive; NS1 inh: -2%; RE007 growth inh: 0%; SARS PLP yeast: 5%; Cruzain noTriton: inconclusive; Cruzain inh Det: -6.5%; Lassa entry inh: -13%

How did CCOc1ccc(CCNC(=O)Cn2nnc(-c3ccc(C(F)(F)F)cc3)n2)cc1OCC do in these assays?
StopGo reporter: -12%; Marburg entry inh: -8%[46.1 µM]; Cruzain noTriton: 5%; Cruzain inh Det: -0.9%; Lassa entry inh: -1%[46.1 µM]

Results for CCC(C)NS(=O)(=O)c1ccc(-c2csnn2)s1 (stereo unspecified) ?
StopGo reporter: 14%; Marburg entry inh: -13%; NS1 inh: -1%; RE007 growth inh: 6%; SARS PLP yeast: 1%; Cruzain noTriton: -2%; Cruzain inh Det: -1.5%; Lassa entry inh: -8%

Results for Cc1ccc(C(=O)N/N=C/c2c(O)ccc3ccccc23)cn1 ?
StopGo reporter: 20%; NS1 inh: -46%; RE007 growth inh: -16%; SARS PLP yeast: -10%

Results for OCC(Br)CBr (stereo unspecified) ?
StopGo reporter: -6%; RE007 growth inh: -3%; SARS PLP yeast: 4%; Cruzain noTriton: 0%; Cruzain inh Det: -0.9%

What do the screens show for `CCOC(=O)C1=C(C)NC(=O)NC1c1c(O)ccc2ccccc12` (stereo unspecified)?
StopGo reporter: 0%; NS1 inh: 11%; RE007 growth inh: 12%; SARS PLP yeast: 12%; Cruzain noTriton: 3%; Cruzain inh Det: 4.9%

How did CCCC1CCC(c2ccc(/C(N)=N/O)cc2)CC1 (stereo unspecified) do in these assays?
StopGo reporter: 15%; Marburg entry inh: inconclusive; NS1 inh: -50%; RE007 growth inh: 27%; SARS PLP yeast: 0%; Lassa entry inh: 15%

What do the screens show for `C[C@H](NC(=O)OC(C)(C)C)C(=O)N/N=C/c1ccc2nccnc2c1`?
StopGo reporter: 3%; NS1 inh: 0%; RE007 growth inh: 6%; SARS PLP yeast: -1%

What do the screens show for `CC1CCC2(CC1)NC(=O)N(CC(=O)c1ccc(Cl)s1)C2=O` (stereo unspecified)?
StopGo reporter: -11%; Marburg entry inh: inconclusive; NS1 inh: 21%; RE007 growth inh: -5%; Lassa entry inh: inconclusive

What do the screens show for `CS(=O)(=O)c1ccc(Cl)c(NC(=O)COC(=O)/C=C/c2cnc3ccccc3n2)c1`?
StopGo reporter: 7%; NS1 inh: 0%; RE007 growth inh: 9%; SARS PLP yeast: 0%

Results for CC(=O)Nc1nc2c(c3c1c(=O)oc1ccccc13)CCCC2 ?
NS1 inh: inconclusive; SARS PLP yeast: 6%; Cruzain noTriton: -1%; Cruzain inh Det: 0.2%

Results for OCC#CCSc1nnc(-c2ccccc2Br)o1 ?
Marburg entry inh: 13%; NS1 inh: 1%; RE007 growth inh: -9%; SARS PLP yeast: -3%; Cruzain noTriton: -12%; Cruzain inh Det: 1.4%; Lassa entry inh: -5%

What do the screens show for `O=C(Nc1cc(C(F)(F)F)ccc1N1CCOCC1)c1ccc(Cl)nc1`?
StopGo reporter: inconclusive; Marburg entry inh: 0%; NS1 inh: 7%; RE007 growth inh: -7%; SARS PLP yeast: inconclusive; Cruzain noTriton: -4%; Cruzain inh Det: -0.7%; Lassa entry inh: 7%

How did Cc1ccc(CCC(=O)Nc2ccc(CC(=O)O)cc2)o1 do in these assays?
StopGo reporter: 6%; Marburg entry inh: 4%; NS1 inh: inconclusive; RE007 growth inh: 0%; SARS PLP yeast: 6%; Lassa entry inh: -3%

How did CCn1ncc(S(=O)(=O)NCc2ccccc2Cl)c1C do in these assays?
StopGo reporter: 29%; Marburg entry inh: 16%[46.1 µM]; NS1 inh: 3%; RE007 growth inh: -7%; SARS PLP yeast: 5%; Lassa entry inh: -8%[46.1 µM]

How did CCOCCCNc1nc2c(C)cccn2c(=O)c1/C=C1\SC(=S)N(C(C)CC)C1=O (stereo unspecified) do in these assays?
StopGo reporter: inconclusive; Marburg entry inh: -16%[14.2 µM]; NS1 inh: 5%; RE007 growth inh: 27%; SARS PLP yeast: 1%; Lassa entry inh: -5%

What do the screens show for `CCCc1c(NC(=O)Nc2ccc(F)cc2)cnn1-c1ccc(Cl)cc1`?
StopGo reporter: inconclusive; Marburg entry inh: inconclusive; NS1 inh: 0%; RE007 growth inh: -12%; SARS PLP yeast: -2%; Lassa entry inh: 5µM*

What do the screens show for `Cc1ccc2[nH]c(=O)c3cc(C(=O)NC(C)C)sc3c2c1`?
StopGo reporter: -2%; Marburg entry inh: 20%[46.1 µM]; NS1 inh: 3%; RE007 growth inh: -2%; SARS PLP yeast: 1%; Lassa entry inh: -4%

How did Cc1ccc(C(=O)CSc2nc(C)cc(C)c2C(=O)Nc2cccc(C)c2)cc1 do in these assays?
StopGo reporter: -12%; Marburg entry inh: -8%[46.1 µM]; Cruzain noTriton: -3%; Cruzain inh Det: -6.1%; Lassa entry inh: 30%[46.1 µM]

How did COc1ccc(NC(=O)Nc2c[nH]c(=O)[nH]c2=O)cc1OC do in these assays?
StopGo reporter: -5%; Marburg entry inh: 5%[46.1 µM]; NS1 inh: 2%; RE007 growth inh: -7%; SARS PLP yeast: 0%; Lassa entry inh: 6%

What do the screens show for `COc1ccc(OC)c(C(=O)CSc2nnc(-c3cccs3)n2C)c1`?
StopGo reporter: 6%; Marburg entry inh: -5%; NS1 inh: -11%; RE007 growth inh: 1%; SARS PLP yeast: 5%; Cruzain noTriton: -8%; Cruzain inh Det: 0.8%; Lassa entry inh: 3%

Results for Cc1[nH]c(=O)[nH]c(=O)c1/C=N/NC(=O)[C@H](C)N ?
StopGo reporter: -14%; NS1 inh: 3%; RE007 growth inh: -5%; SARS PLP yeast: -1%

What do the screens show for `CCN(CC(=O)NCc1cccs1)C(=O)c1cccc(S(=O)(=O)N(C)C)c1`?
StopGo reporter: 7%; Marburg entry inh: inconclusive; RE007 growth inh: 2%; SARS PLP yeast: -4%; Lassa entry inh: -12%

How did Cc1cnc(NC(=O)CN2CCN(c3ccccc3F)CC2)s1 do in these assays?
StopGo reporter: -25%; Marburg entry inh: -11%; NS1 inh: 2%; RE007 growth inh: 9%; SARS PLP yeast: -3%; Cruzain noTriton: 0%; Cruzain inh Det: -0.1%; Lassa entry inh: 7%

What do the screens show for `COc1ccc(CN2CCN(CC=C(C)C)C(CCO)C2)cc1Cn1cccn1` (stereo unspecified)?
StopGo reporter: -17%; Marburg entry inh: -8%[46.1 µM]; NS1 inh: -1%; RE007 growth inh: 2%; SARS PLP yeast: 0%; Lassa entry inh: 4%

Results for OCCN1CCN(Cc2cc(Br)cc(Br)c2O)CC1 ?
StopGo reporter: -18%; Marburg entry inh: inconclusive; NS1 inh: -2%; RE007 growth inh: 17%; SARS PLP yeast: 1%; Cruzain noTriton: -2%; Cruzain inh Det: -2.7%; Lassa entry inh: -2%

Results for CCC(=O)N1CCc2cc(Br)cc(S(=O)(=O)CCC(=O)NCc3ccc(F)cc3)c21 ?
StopGo reporter: -12%; Marburg entry inh: -6%[46.1 µM]; Cruzain noTriton: 8%; Cruzain inh Det: -1.9%; Lassa entry inh: inconclusive

Results for Cc1ccc(C(=O)NCCCNC(=O)c2ccccc2F)cn1 ?
StopGo reporter: -11%; Marburg entry inh: 10%[46.1 µM]; NS1 inh: -12%; RE007 growth inh: 1%; SARS PLP yeast: -2%; Lassa entry inh: 12%

What do the screens show for `CCCS(=O)(=O)N1CCC(C(=O)NCCN2CCC(Cc3ccccc3)CC2)CC1`?
StopGo reporter: 0%; Marburg entry inh: -5%; NS1 inh: -2%; RE007 growth inh: -3%; SARS PLP yeast: 3%; Cruzain noTriton: 3%; Cruzain inh Det: 2.9%; Lassa entry inh: 1%

What do the screens show for `COc1ccc(S(=O)(=O)NC2(C(F)(F)F)N=C3SCCN3C2=O)cc1` (stereo unspecified)?
StopGo reporter: 14%; Marburg entry inh: 0%[46.1 µM]; NS1 inh: -5%; RE007 growth inh: 11%; SARS PLP yeast: -1%; Cruzain noTriton: -3%; Cruzain inh Det: 1.9%; Lassa entry inh: 12%

How did Cn1nc(OC(=O)Nc2ccc(F)cc2)cc1C(F)(F)F do in these assays?
StopGo reporter: 1%; Marburg entry inh: -3%; NS1 inh: -2%; RE007 growth inh: -2%; SARS PLP yeast: -1%; Cruzain noTriton: -1%; Cruzain inh Det: 1.6%; Lassa entry inh: 7%

Results for O=C(c1ccc(CS(=O)Cc2ccc(Cl)cc2)o1)N1CCN(c2ccccc2)CC1 (stereo unspecified) ?
StopGo reporter: -8%; Marburg entry inh: -6%[46.1 µM]; NS1 inh: 17%; RE007 growth inh: -5%; SARS PLP yeast: 9%; Lassa entry inh: -27%[46.1 µM]
